MT1-MMP reporter = inhibitors of MT1-MMP promoter transcription, cell-based, luciferase reporter, luminescence (AID 618). MT1-MMP promoter luciferase reporter cells, luminescence. calls from a first round at 10 µM; hits with a dose series show EC50 in µM. actives 0.62% (n = 87,000);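 active means over half of the reporter light lost at 10 µM or EC50 under 50 µM; inactive means the rest and hits that failed the dose series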;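 further: actives suppress MT1-MMP promoter-driven transcription so potencies describe inhibitors; HT1080 fibrosarcoma cells; overnight exposure; toxic or luciferase-blocking compounds were not removed from the actives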
WNV protease inh = WNV NS2B-NS3 proteinase inhibition; P06935; WNV NS2B-NS3 protease, fluorogenic substrate Ex360/Em465; stronger effect = lower value; z-score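 (tested at a level between 10 and 100 µM)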; actives 0.18% (n = 65,000); AID 577;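 active means z-score at -3 or under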;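 further: score is relative to mean and spread of the compound wells of a plate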
Target sequence (P06935 1371-1501 limits assumed): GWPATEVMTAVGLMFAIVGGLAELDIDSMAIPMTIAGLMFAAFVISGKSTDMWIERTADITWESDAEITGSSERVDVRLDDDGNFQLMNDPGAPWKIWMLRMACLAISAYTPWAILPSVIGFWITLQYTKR
Target sequence (P06935 1502-1679 limits assumed): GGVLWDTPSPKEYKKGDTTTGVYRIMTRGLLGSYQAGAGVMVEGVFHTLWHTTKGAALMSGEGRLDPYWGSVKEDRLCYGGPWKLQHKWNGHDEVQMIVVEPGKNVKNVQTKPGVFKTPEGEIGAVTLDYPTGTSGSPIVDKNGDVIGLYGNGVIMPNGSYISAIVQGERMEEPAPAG
Hsc70 ATP site = Hsc70 inhibitors, probe displacement, primary screen, biochemical, fluorescence polarization (AID 568); Hsc70 fluorescence polarization, probe displacement; higher % means a stronger effect; strong numbers were not always called active; displacement, % at 20 µM, or IC50 in µM where a hit was titrated; 83,000 tested, under 10 active;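 active means displacement above 50% without optical interference and an IC50 on retest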;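 further: ATPase domain with a fluorescein-tagged ATP probe; 0% = vehicle and 100% = excess ADP; read after one hour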
Numbers without * were called inactive; i = inactive; / = no result given.

A first look:
no.	compound	MT1-MMP reporter	WNV protease inh	Hsc70 ATP site
1	CCCCn1c(=O)n(CC(=O)Nc2ccc(C)c(Cl)c2)c(=O)c2c1ncn2Cc1ccco1	i	-0.9	-21%
2	Cc1oc(-c2cccs2)nc1CS(=O)CC(=O)NCCCN1CC(C)CC(C)C1 (stereo not given)	i	0.3	1.0%

The listing, repeating the preview:
no.	compound	MT1-MMP reporter	WNV protease inh	Hsc70 ATP site
1	CCCCn1c(=O)n(CC(=O)Nc2ccc(C)c(Cl)c2)c(=O)c2c1ncn2Cc1ccco1	i	-0.9	-21%
2	Cc1oc(-c2cccs2)nc1CS(=O)CC(=O)NCCCN1CC(C)CC(C)C1 (stereo not given)	i	0.3	1.0%
3	Cc1ncsc1CCSc1n[nH]c(=O)n1-c1ccccc1	i	0.41	-2.3%
4	CSc1nc2ccc(NS(=O)(=O)c3ccc4c(c3)OCCO4)cc2s1	i	-1.4	5.8%
5	CCOC(=O)c1[nH]nc2c1C(=O)N(Cc1ccccc1)C2=O	i	1.7	-1.0%
6	O=C(C[n+]1ccc(C(=O)N/N=C/c2ccc(Cl)cc2Cl)cc1)c1ccccc1	i	/	-0.4%
7	CCCC(C(=O)NCc1ccco1)N(C(=O)CNS(=O)(=O)c1ccc(Cl)cc1)C1CCCC1 (stereo not given)	i	0.14	6.9%
8	c1cncc(-c2nc(-c3ccco3)cs2)c1	i	-1.1	0.7%
9	O=C(Cn1nnc(-c2ccccc2)n1)c1ccccc1	i	-0.96	-4.2%
10	CCC(C)[C@H](N)c1nnc(SCc2cccc(F)c2)o1 (stereo not given in full)	i	0.22	5.8%
11	COc1cc(NC(=O)c2cc3sccc3n2C)cc(OC)c1	i	0.58	3.1%
12	CCn1c(NC(=O)c2cccs2)nc2ccccc21	i	0.0051	1.3%
13	COc1cc2c(cc1OC)C(c1cc3cc4c(cc3[nH]c1=O)OCO4)N(C(=O)C(C)C)CC2 (stereo not given)	i	/	0.3%
14	O=C(CN1CCN(S(=O)(=O)c2ccc(Br)cc2)CC1)Nc1ccc(F)cc1	i	1.6	0.9%
15	CC(OC(=O)c1cccs1)C(=O)NCc1cccs1 (stereo not given)	i	-0.98	1.2%
16	CCn1nnnc1SCCSc1nnnn1CC	i	0.1	-0.1%
17	COc1ccccc1CNC(=O)CSc1nc2nc(C)cc(C)n2n1	i	-2.1	4.7%
18	CN(C)CCSc1nc(N)c2c3c(sc2n1)COC(C)(C)C3	i	/	3.8%
19	CC(C)C(c1nnnn1Cc1ccccc1)N1CCC(C(N)=O)CC1 (stereo not given)	i	-0.63	-3.5%
20	CN1CCN(c2nc3c(c(=O)[nH]c(=O)n3C)n2CCCSc2ncccn2)CC1	i	-0.28	-2.2%
21	Cc1cc(C(C)(C)C)oc1C(=O)N1CCN(C(=O)c2oc(C(C)(C)C)cc2C)CC1	i	-0.06	0.1%
22	Cc1cc(Nc2ccccc2N2CCOCC2)n2ncnc2n1	i	0.48	-1.1%
23	Cc1ccc2c(CC(=O)OC(C)C(=O)NCc3ccc4c(c3)OCO4)coc2c1 (stereo not given)	i	0.92	7.8%
24	Cc1ccc(NC(=O)C2CCN(S(=O)(=O)c3ccc(F)cc3)CC2)cc1	i	/	-0.1%
25	Cc1ccc(S(=O)(=O)N[C@H](C(=O)N2CCC(C(=O)NCC(=O)O)CC2)C(C)C)cc1	i	1.7	-12%

One compound at a time, from the list above.
O=C(C[n+]1ccc(C(=O)N/N=C/c2ccc(Cl)cc2Cl)cc1)c1ccccc1 is entered as MT1-MMP reporter = i; WNV protease inh = /; Hsc70 ATP site = -0.4%
O=C(CN1CCN(S(=O)(=O)c2ccc(Br)cc2)CC1)Nc1ccc(F)cc1 is entered as MT1-MMP reporter = i; WNV protease inh = 1.6; Hsc70 ATP site = 0.9%

More results:
no.	compound	MT1-MMP reporter	WNV protease inh	Hsc70 ATP site
26	COc1ccc(NC(=O)C2CC(=O)OC23CCOC(C)(C)C3)cc1 (stereo not given)	i	/	-3.5%
27	CCOC(=O)N1CCN(C(=O)COc2cc(=O)n(CC)c3ccccc23)CC1	i	-1.3	-0.1%
28	O=S(=O)(c1ccccc1)N1CCN(C2CCCCCCC2)CC1	i	0.42	1.9%
29	O=C1c2ccccc2C(=O)N1CCN1CCOCC1	i	-0.18	-5.8%
30	COc1ccccc1C1NC(=O)NC(C)=C1C(C)=O (stereo not given)	i	-1.6	-2.4%
31	CCC(SC1=Nc2ccccc2C2=NC(CC(C)C)C(=O)N12)C(=O)Nc1ccc2c(c1)OCO2 (stereo not given)	i	-0.65	-1.3%
32	O=c1[nH]c2ccc(S(=O)(=O)N3CCCCC3)cc2o1	i	/	6.0%
33	CCn1c(SCC(=O)Nc2cc(C)on2)nnc1-c1ccc(S(=O)(=O)N2CCCC2)cc1	i	0.3	1.4%
34	O=C(c1ccc(Br)cc1)C1CCc2occc2C1=O (stereo not given)	i	-0.32	-3.9%
35	O=C(Nc1ccccc1C(=O)N1CCCCC1)C1CCCCC1	i	-0.39	-3.0%
36	Cc1cccc(Cn2cnc3c(nnn3Cc3ccccc3F)c2=O)c1	i	-0.31	-0.3%
37	O=S(=O)(Nc1ncn[nH]1)c1ccc(Cl)cc1	i	/	0.7%
38	CCOc1ccc(NC(=O)CSc2nnc(-c3ccccn3)n2N)cc1	i	0.8	-0.8%
39	CCn1c(SCc2cccnc2)nnc1-c1c[nH]c2ccccc12	i	-0.63	1.3%
40	COCCOC(=O)C1=C(C)NC(=O)NC1c1c(OC)ncnc1OC (stereo not given)	i	0.04	-7.4%
41	Cc1c(C(=O)N2CCOCC2)sc(NC(=O)c2ccc3c(c2)OCO3)c1C#N	i	-0.88	-1.1%
42	O=C(CN1CCN(c2ccccn2)CC1)Nc1cc(C(F)(F)F)ccc1Cl	i	1.8	5.8%
43	CC(=O)c1ccc(N2CCN(C(=O)CCCn3c(=S)[nH]c4cc5c(cc4c3=O)OCO5)CC2)cc1	i	-0.71	2.2%
44	COC(=O)c1ccccc1NC(=O)NCc1ccco1	i	0.27	-1.8%
45	CC1(C)NC(=O)N(CCCCOc2ccc(Br)cc2Cl)C1=O	i	/	2.2%
46	CN1CCN(C(=O)c2cc3ccccc3oc2=O)CC1	i	/	-0.2%
47	CN(C(=O)COc1ccccc1)c1nnc(-c2ccncc2)s1	i	0.3	0.7%
48	Cc1ccc(-n2ncc3c(=O)[nH]c(SCC(=O)N4CCN(c5ccccc5)CC4)nc32)cc1	i	-0.92	-14%
49	CC1(C)Cc2c(c(-c3ccccc3)nc(N3CCCC3)c2C(N)=O)CO1	i	0.59	-0.3%
50	Cc1ccc(NC(=O)Nc2ccc3c(c2)N(C)C(=O)CS3)nc1	i	-0.34	-13%
51	C=CCn1c(CSc2nc3ccccc3s2)nnc1SCC(=O)NCc1ccco1	i	0.12	-2.8%
52	N#CCC(=O)N1CCCCCC1	i	2.5	2.9%
53	CCn1c(Cn2nnc(-c3ccccc3)n2)nnc1SCC(=O)N1CCOCC1	i	-1.1	0.0%
54	COc1ccc(CCC(=O)Nc2ccc3c(c2)OCCO3)cc1	i	0.71	7.2%
55	COc1ccc(CNC(=O)CSc2nc3c(c(=O)n(C)c(=O)n3C)n2C)cc1	i	/	-0.5%
56	CC1CCCCC1NC(=O)Cn1nnc(-c2ccc(Cl)cc2)n1 (stereo not given)	i	0.83	0.1%
57	Cc1ccc(-c2nnc3ccc(SCC(=O)N4CCCCC4)nn23)cc1	i	-0.5	-8.1%
58	COCCN1Cc2cccc(C(=O)Nc3cccnc3)c2C1=O	i	0.2	0.2%
59	Cc1nn(-c2ccccc2)c2c1C(c1c(C)[nH]c(C#N)c1C)C(C#N)=C(N)O2 (stereo not given)	i	-1.3	-5.9%
60	Cc1cc(-c2ccccc2C(=O)O)on1	i	-0.27	3.1%
61	CCC1Oc2ccc(C)cc2N(Cc2cccc(C)c2)C1=O (stereo not given)	i	1.2	3.6%
62	CC(C)CNS(=O)(=O)c1ccc(S(=O)(=O)NC2CCOC(C)(C)C2)cc1 (stereo not given)	i	/	4.1%
63	CC(=O)Nc1ccc(S(=O)(=O)N2CCSC2c2ccccc2)cc1 (stereo not given)	i	-0.22	-5.3%
64	COc1ccc(S(=O)(=O)NCCSC(C)(C)C)c(Cl)c1Cl	i	/	3.4%
65	CC(C)C(=O)Nc1ccc(NC(=O)c2cc3ccccc3o2)cc1	i	-0.99	1.0%
66	CCOC(=O)c1ccc(Nc2cc(C)nc3nc(C)nn23)cc1	i	-0.96	-5.7%
67	Cc1ccc(C(C)C)c(OCCNc2nc3c(c(=O)n(C)c(=O)n3C)n2C)c1	i	0.69	-8.2%
68	O=C(CC1COc2ccccc2O1)NC1CCCCC1 (stereo not given)	i	-1.5	1.4%
69	OCCN(Cc1ccccc1)CC1CC2C=CC1C2 (stereo not given)	i	-0.59	-2.6%
70	O=S(=O)(Cc1ccccc1Cl)Nc1ccccn1	i	1.2	0.8%
71	Cc1ccc2c(C(=O)CN3CCOCC3)c(C)[nH]c2c1	i	/	1.3%
72	Cc1cccc(NC(=O)c2ccccc2Br)n1	i	-2.8	1.0%
73	COc1cc2c(cc1OC)CN(CC(=O)Nc1ccc3c(c1)OCO3)CC2	i	/	3.6%
74	COc1ccc(NC(=O)C2CCCN(S(=O)(=O)c3c(C)n[nH]c3C)C2)cc1 (stereo not given)	i	-0.66	1.9%
75	CC(Sc1nc(N)cc(=O)[nH]1)C(=O)NC1CCCCC1 (stereo not given)	i	1.1	6.2%

(listing goes on)
no.	compound	MT1-MMP reporter	WNV protease inh	Hsc70 ATP site
76	Cc1nnc(SCC(=O)N2CCOCC2)n1C	i	-0.97	-1.7%
77	COc1ccc(Cc2nc(C(=O)Nc3ccc(OC)cc3)cs2)cc1	i	/	1.6%
78	Cc1cc(Br)ccc1NC(=O)CCN1C(=O)c2ccncc2C1=O	i	0.68	3.2%
79	CCN(CC)S(=O)(=O)c1ccc2c(c1)nc(SC(C)C(N)=O)n2-c1ccc(OC)cc1 (stereo not given)	i	/	2.4%
80	O=C(NCCC1=CCCCC1)NC1CCCCC1	i	-0.09	9.0%
81	O=C(CCc1ccccc1)Nc1ccc(NC(=O)c2ccco2)nc1	i	1	2.5%
82	COc1ccc(CNCCNC(=O)c2nonc2N)cc1OC	i	-0.07	0.2%
83	Cc1ccc2nc3c(cc2c1)CN(Cc1ccco1)C(=NCC1CCCO1)S3 (stereo not given)	i	-0.27	-0.1%
84	CCn1c(CSc2nc3ccccc3s2)nnc1SCC(=O)OC(C)(C)C	i	/	-2.3%
85	COc1cccc(NC(=O)C2CCN(S(C)(=O)=O)CC2)c1	i	1.2	2.8%
86	Cn1c(COc2ccccc2)nnc1SCC(=O)Nc1ccc2c(c1)OCO2	i	-0.34	4.4%
87	C=CCn1c(SCC(=O)O)nnc1-c1cccc(Cl)c1	i	-0.01	-1.7%
88	Cc1cc(NC(=O)Cn2cnc3c(cnn3C(C)(C)C)c2=O)no1	i	0.88	3.9%
89	Cc1nc2ccccc2c(=O)n1N	i	0.21	-2.3%
90	CCn1c(COc2ccc(C(C)C)cc2)nnc1SCC(=O)Nc1nccs1	i	/	-0.8%
91	COC(=O)c1cc(NC2c3ccccc3C(=O)N2c2cccnc2)cc(C(=O)OC)c1 (stereo not given)	i	0.22	0.9%
92	O=C(O)c1ccc2c3c(ncnc13)-c1ccccc1C2=O	i	0.44	39%
93	O=c1oc2c(CN3CCOCC3)c(O)c(Cl)cc2c2c1CCC2	i	5.2	-2.0%
94	CCOC(=O)C1CCN(C(=O)c2cccnc2)CC1	i	-1.2	-0.8%
95	Cc1cc(=O)oc(C)c1C(=O)N[C@@H]1CCCCNC1=O	i	0.45	2.7%
96	COc1ccc(CN(C(=O)CSc2nnc(-c3ccccc3C)o2)c2ccc(F)cc2)cc1	i	/	1.6%
97	CC1(C)CC(=O)N(CC(=O)NCc2ccc(F)cc2)c2ccccc2S1(=O)=O	i	0.63	-2.2%
98	COc1ccc(C)cc1NC(=O)CN1C(=O)c2cccc3cccc1c23	i	/	-5.6%
99	COc1ccc(C(=O)NC(=O)COC(=O)C2COc3ccccc3O2)cc1 (stereo not given)	i	/	-3.3%
100	Cc1cccc(NC(=O)c2sc3nc4c(c(-c5cccs5)c3c2N)CN(C)CC4)c1	i	/	-0.4%
101	C=CCn1c(SC(C)C(=O)NC2(C#N)CCCCC2)nnc1-c1ccc(OC)cc1 (stereo not given)	i	0.47	2.7%
102	Cc1nc2c(c(=O)n1CCC1=CCCCC1)c1nc3ccccc3nc1n2/N=C/c1ccco1	i	-2.2	-20%
103	CCc1nc(N)c(C#N)c(-c2ccc(O)c(OC)c2)c1C	i	-0.08	1.0%
104	COc1ccc(CCNC2CC(C)N(C)CC2C)cc1OC (stereo not given)	i	0.58	-6.7%
105	Oc1ccc(Cl)cc1CNc1ccc(Br)cn1	i	0.18	5.1%
106	CC1=C(C(=O)OCC2CCCO2)C(c2cccc(C(F)(F)F)c2)C2=C(CC(c3ccco3)CC2=O)N1 (stereo not given)	i	/	-3.7%
107	COc1ccc2c(=O)c3c(=O)n(Cc4ccco4)c(-c4cc(OC)c(OC)c(OC)c4)nc3oc2c1	i	0.19	0.9%
108	O=C(O)c1cccc(S(=O)(=O)Nc2ccc3oc(=O)sc3c2)c1	i	-0.48	-2.8%
109	COCCNC(=O)CN1CCN(Cc2cccc(Cl)c2)C1=O	i	1	6.0%
110	CCc1ccc(OCC(=O)NCc2ccco2)c(Br)c1	i	1.5	0.3%

Assay outcomes (PubChem BioAssay)

This is a subset, so the mix of outcomes need not match the whole.
